MLL AF4-AF9 inh: blocks AF4 peptide binding to human AF9; inhibition, % at 10 µM; hit rate 0.47% among 350,000; AlphaScreen, biotin-AF4 peptide binding to FLAG-AF9; AID 651704; P42568;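 active = every replicate reaching a set inhibition limit, whatever the replicate mean, cut at about 25% in these data; inconclusive = mean inhibition reaches that limit but some replicates miss it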;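 note: 0% = plate neutral control median and 100% = total signal loss; the record names both 10 and 1 µM as test concentration; the first replicate is given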
Target sequence (P42568 whole entry, looked up): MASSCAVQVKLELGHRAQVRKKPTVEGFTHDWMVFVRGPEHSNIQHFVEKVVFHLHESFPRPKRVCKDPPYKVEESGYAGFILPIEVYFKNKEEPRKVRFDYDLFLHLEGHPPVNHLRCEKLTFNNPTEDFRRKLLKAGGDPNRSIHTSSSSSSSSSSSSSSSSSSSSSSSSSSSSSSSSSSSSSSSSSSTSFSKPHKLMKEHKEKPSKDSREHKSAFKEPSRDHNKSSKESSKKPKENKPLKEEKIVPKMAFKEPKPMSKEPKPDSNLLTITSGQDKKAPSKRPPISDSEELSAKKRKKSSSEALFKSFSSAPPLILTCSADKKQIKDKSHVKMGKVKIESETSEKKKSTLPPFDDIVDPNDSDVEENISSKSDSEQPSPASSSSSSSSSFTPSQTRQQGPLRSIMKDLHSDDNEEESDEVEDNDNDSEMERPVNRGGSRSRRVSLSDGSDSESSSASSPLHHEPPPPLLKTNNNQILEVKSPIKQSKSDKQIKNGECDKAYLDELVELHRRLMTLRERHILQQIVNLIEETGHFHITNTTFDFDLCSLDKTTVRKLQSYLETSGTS
HNF4A DNA FP: change in binding of human HNF4 alpha to DNA; P41235; HNF4a-FITC DNA binding, fluorescence polarization, 1 h; activity change, % at 10 µM; hit rate 0.3% among 360,000; AID 1224865; in the data active = activity change above about 30%, passing the limit was not always enough;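 note: controls were the assay level and a saturating level of protein; the project sought stronger binding though the title names inhibitors; some compounds called inactive have numbers as strong as hits; positive values seem to mean higher polarization but the record does not say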
Target sequence (P41235 whole entry, looked up): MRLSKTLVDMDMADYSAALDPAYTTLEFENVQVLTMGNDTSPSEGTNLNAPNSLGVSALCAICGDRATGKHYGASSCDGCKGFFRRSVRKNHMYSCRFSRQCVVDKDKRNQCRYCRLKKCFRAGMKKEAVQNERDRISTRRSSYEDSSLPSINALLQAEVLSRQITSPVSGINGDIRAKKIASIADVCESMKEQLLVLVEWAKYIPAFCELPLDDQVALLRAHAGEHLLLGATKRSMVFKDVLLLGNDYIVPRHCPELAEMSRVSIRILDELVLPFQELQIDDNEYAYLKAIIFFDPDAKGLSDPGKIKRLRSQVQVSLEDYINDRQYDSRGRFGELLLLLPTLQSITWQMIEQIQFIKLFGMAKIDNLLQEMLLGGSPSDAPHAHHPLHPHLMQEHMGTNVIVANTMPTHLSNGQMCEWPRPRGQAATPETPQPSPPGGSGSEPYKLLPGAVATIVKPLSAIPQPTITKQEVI
E coli growth: blocks Escherichia coli growth. OD600, 23 h; hits give low values. OD600 absorbance (concentration not given with the values). hit rate 0.21% among 330,000;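 active = OD600 absorbance below the run mean of sample wells minus 3.6 SD, in any replicate, cut at about 0.56 in these data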;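 note: stock transfer was 300 nL into about 60 µL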
FGF22 binding: shifts melting point of recombinant human FGF22; Q9HCT0; recombinant FGF22 thermal shift, SYPRO orange fluorescence; percent of sucrose octasulfate shift, DMSO zero; calls only at 9.99 µM; hit rate 1.5% among 340,000; AID 651658;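 active = melting point raised past a set limit in the mean and every replicate; inconclusive = no clear call; three in four hits are not shown here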
Vif TR-FRET: HIV-1 Vif–A3G interaction blockers – biochemical, TR-FRET, GST-Vif 1-94, biotin-A3G peptide, dose response retest, primary screen (AID 1117319) | one-dose inhibition, %; IC50 in µM for titrated hits | hit rate 0.57% among 260,000 | TR-FRET GST-Vif / biotin-A3G peptide binding; higher % means a stronger effect; test concentration not given here; strong numbers were not always called active;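 active = above the screen mean plus three standard deviations and confirmed in dose response; inconclusive = results disagree or hit not tested in dose response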;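 note: Vif residues 1-94 fused to GST binding biotinylated APOBEC3G peptide 110-148; 0% = full assay without inhibitor and 100% = GST in place of GST-Vif; retest series ran down from 100 µM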
RanGTP-Impb inh: inhibitors of RanGTP-importin-beta interaction, primary screen, biochemical, FRET, CFP-Ran, YFP-importin-beta, homogeneous; cell-free CFP-Ran/YFP-importin-beta FRET ratio; inhibition, % (test concentration not listed); hit rate 1.1% among 300,000;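 active = most replicates above 15%; inconclusive = exactly half above 15%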;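 note: 0% = DMSO wells and 100% = Ran loaded with GDP instead of GTP; wells of about 40 µL received 100 nL stock; the first replicate is given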
UCH37 DUB inh: inhibitors of human deubiquitinating enzyme UCH37 | purified proteasome/UCH37, Ub-AMC cleavage fluorescence | Q9Y5K5 | inhibition, % (test concentration not listed) | hit rate 0.33% among 330,000 | AID 588478;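 active = mean of two replicates above 20%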;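 note: 0% = compound-free wells with enzyme and 100% = wells lacking proteasome; stock transfer was 100 nL into about 20 µL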
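Reagent: Ub-AMC substrate; assay system: Proteasome-associated human UCH37 deubiquitinase; controls: no-proteasome and no-compound wells; read-out: % inhibition of Ub-AMC cleavage fluorescence; timing: 30 min preincubation with enzyme, 25 min cleavage at room temperature; signal: AMC fluorescence from Ub-AMC cleavage, excitation 355 nm, emission 460 nm; buffer or medium: Tris-HCl pH 7.4 plus ovalbumin, ATP-MgCl2, DTT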
Active calls of the source: *; i = inactive; u = inconclusive; x = no result given; + = active, no number; & = joins results of further samples.

SMILES	MLL AF4-AF9 inh	HNF4A DNA FP	E coli growth	FGF22 binding	Vif TR-FRET	RanGTP-Impb inh	UCH37 DUB inh
FC(F)(F)c1cccc(Cc2noc(CN3CCC(N4CCCCC4)CC3)n2)c1	4.7	0.4	0.66	i	24%	-1.9	1.4
Cn1c(N2C(=O)CC(Cc3ccccc3)C2=O)nc2ccccc21 (stereo unspecified)	x	-2.3	0.75	x	-1%	-0.7	-2.8
Nc1c(C(=O)NCc2ccc(F)cc2)c2nc3ccccc3nc2n1CCCN1CCOCC1	x	2.4	0.62	x	-5%&-8%	87*	-285
CC(=O)Nc1ccc(NC(=O)c2ccc(Cl)nc2)cc1	0.0	0.8	0.68	i	x	0.3	4.1
CC(C)C(NC(=O)CC12CC3CC(CC(C3)C1)C2)C(=O)O (stereo unspecified)	-0.6	-1.1	0.7	i	26%	-0.7	0.7
CC1CCCCN1C(=S)NC(=O)c1cccs1 (stereo unspecified)	-43	3.7	0.7	i	-13%	1.1	-0.3
CCN(C[C@H]1N[C@@](Cc2ccccc2)(C(=O)OC)[C@H]2C(=O)N(C)C(=O)[C@@H]12)C(=O)C1CCCCC1	0.8	1.4	0.69	i	3%	x	1.1
Oc1ccc(/C=N/Nc2ccc(Cl)nn2)cc1O	1.3	0.2	x	i	x	2.9	x
COc1ccc(CCNC(=O)COC(=O)c2cccn2C)cc1	2.7	0.4	0.73	x	28%	x	0.2
C/C(=N\N(c1ccccc1)c1ccccc1)c1ccco1	3.6	-12	x	i	3%	1.4	x
COc1cc(CCCN2C(N)=NC[C@@H]2c2ccccc2)cc(OC)c1OC	2.2	-4.9	x	i	0%	0.7	1.2
Cc1ccc(C(=O)C(C)N(C(=O)c2ccc(Cl)cc2Cl)N2C(=O)CCCC2=O)cc1 (stereo unspecified)	7.9	-5.4	0.72	i	x	-3.2	4.0
CC(C)N(C(=O)CSc1nn2c(=O)c(C(C)(C)C)nnc2s1)c1ccccc1	x	-3.7	0.7	x	12%	6.5	3.1
N#Cc1ccc(Nc2nc(-c3ccccc3)c(C(=O)c3ccccc3)s2)cc1	4.8	-0.6	x	i	x	x	x
CCN(CC(=O)Nc1ccccc1OC)CC(=O)Nc1sccc1C#N	-1.8	1.2	0.73	i	-8%	2.0	2.2
S=C1NC2CCCCC2N1 (stereo unspecified)	-3.4	3.5	0.72	i	1%	-1.4	1.5
CC1CN(C(=O)c2cccs2)CCN1C(=O)c1cccs1 (stereo unspecified)	x	0.6	0.73	x	u	-2.3	2.3
CC(C)C(=O)c1cn(CC(=O)O)c2ccccc12	-1.6	-2.0	0.67	i	x	2.4	-1.7
Cc1cccc(N2CCN(C(=O)C3CCN(S(=O)(=O)c4cccnc4)CC3)CC2)c1C	1.7	0.2	0.66	i	2%	0.7	3.6
CCOc1cc(/C=C2\C(=N)N3N=C(CC)SC3=NC2=O)ccc1OCCOc1ccc(NC(C)=O)cc1	2.2	4.6	0.72	i	3%	7.1	-20
O=C(COc1cccc(Cl)c1)NNC(=S)Nc1ccccc1	-8.5	-2.1	0.64	i	x	-4.6	1.6
Cc1c(NC(=O)CN2CCN(c3ccc(F)cc3)CC2)c(=O)n(-c2ccccc2)n1C	-3.8	-1.5	0.7	i	-5%	3.3	1.9
CCc1ccc(N2CC(C(=O)Nc3nc4ccc(S(C)(=O)=O)cc4s3)CC2=O)cc1 (stereo unspecified)	-0.7	-0.3	0.69	i	x	0.7	-0.1
Cc1ccc(NC(=O)CC2SC(=NC3CCCCC3)NC2=O)cc1 (stereo unspecified)	3.2	-2.4	0.71	i	7%	6.2	6.4
CCN(CC)S(=O)(=O)c1ccc(NC(=O)C2COc3ccccc3O2)cc1 (stereo unspecified)	x	0.9	0.75	x	5%	-2.4	1.6
O=C(COc1ccc(Br)cc1)NNC(=O)c1ccc(-n2cncn2)c([N+](=O)[O-])c1	0.2	1.9	0.65	i	-14%	x	4.4
COc1ccc(C(CNC(=O)c2cc3c(s2)CCC(C)C3)N2CCCC2)cc1 (stereo unspecified)	13	4.4	0.66	i	-10%	x	0.5
O=C(NCc1ccc2c(c1)OCO2)c1nc(Cn2cc(Br)cn2)no1	2.7	-0.1	0.63	i	1%	-3.9	1.9
CC(CNCC1CCCO1)COc1cccc2ccccc12 (stereo unspecified)	x	-0.6	0.79	x	29%	0.4	6.4
CCOC(=O)CCC(=O)Nc1ccc([N+](=O)[O-])cc1C	-1.0	30*	0.67	i	x	-1.1	3.0
CNS(=O)(=O)c1cc(NC(=O)c2cccc3cccnc23)ccc1C	3.8	7.2	0.64	i	0%	0.3	5.9
CC(=O)Nc1cccc(NC(=O)CSc2nnc(NC(=O)c3ccco3)s2)c1	-2.0	-4.3	0.68	+	x	-0.2	9.0
O=C(NNC(=O)c1cc2ccccc2cc1O)NC1CCCCC1	0.1	-0.6	0.73	x	x	-1.9	0.0
CCOc1nc(NCc2ccco2)nc(Nc2ccccc2F)n1	x	5.7	0.76	x	12%	0.1	0.6
N#Cc1c(N)nc2c(c1-c1cccc(O)c1)CCCCCC2	x	-1.0	0.68	x	-1%	u	-13
COc1ccc(N2C(=O)CC(N(Cc3ccco3)C(=O)CCC(=O)O)C2=O)cc1 (stereo unspecified)	-1.0	0.6	0.68	i	9%	-0.9	-0.6
O=C(NCc1ccccc1)c1ccc(CS(=O)(=O)c2ccc(Br)cc2)o1	2.0	4.8	0.64	i	x	-1.5	6.1
Cc1cc(NC(=O)COc2nnc(-c3ccccc3)c3ccccc23)no1	x	-3.6	0.76	x	21%	x	0.4
CCN1c2ccccc2-c2nc3ccccc3n2C1c1ccco1 (stereo unspecified)	x	-3.7	0.67	x	-1%	-2.3	i
O=C(/C(=C/O)N=Nc1ccccc1)c1ccco1	4.2	-2.0	0.68	i	4%	-1.6	7.7

A second format for some results above.
| molecule | MLL AF4-AF9 inh | HNF4A DNA FP | E coli growth | FGF22 binding | Vif TR-FRET | RanGTP-Impb inh | UCH37 DUB inh |
| --- | --- | --- | --- | --- | --- | --- | --- |
| CCN(CC)S(=O)(=O)c1ccc(NC(=O)C2COc3ccccc3O2)cc1 (stereo unspecified) | x | 0.9 | 0.75 | x | 5% | -2.4 | 1.6 |
| O=C(COc1ccc(Br)cc1)NNC(=O)c1ccc(-n2cncn2)c([N+](=O)[O-])c1 | 0.2 | 1.9 | 0.65 | i | -14% | x | 4.4 |
| COc1ccc(C(CNC(=O)c2cc3c(s2)CCC(C)C3)N2CCCC2)cc1 (stereo unspecified) | 13 | 4.4 | 0.66 | i | -10% | x | 0.5 |
| O=C(NCc1ccc2c(c1)OCO2)c1nc(Cn2cc(Br)cn2)no1 | 2.7 | -0.1 | 0.63 | i | 1% | -3.9 | 1.9 |

(list continues)
SMILES	MLL AF4-AF9 inh	HNF4A DNA FP	E coli growth	FGF22 binding	Vif TR-FRET	RanGTP-Impb inh	UCH37 DUB inh
O=C(CCn1c(=O)oc2cc(Cl)ccc21)Nc1ccc(O)cc1	-8.4	-1.9	0.69	i	x	2.7	5.1
c1ccc2[nH]c(CSc3nc4ccccc4o3)nc2c1	x	3.3	0.62	x	u	7.7	-1.7
Cc1ccc(C(C#N)c2ccc3c(C(F)(F)F)cc(C(F)(F)F)nc3n2)cc1 (stereo unspecified)	x	2.5	0.71	x	u	1.7	2.0
CC(/C=N/N1CCN(c2ccccc2)CC1)=C\c1ccccc1	2.3	-1.8	x	i	1%	-4.8	x
COc1ccc(NC(=O)N/C=C/c2ccc(Cl)cc2)cc1	-0.2	-1.3	0.66	i	2%	3.2	2.3
CNC(=O)NC(=O)CSc1ccc(S(=O)(=O)N(C)C2CCCCC2)cn1	-0.8	-0.9	0.69	i	-5%	x	4.6
COc1ccc(C(=O)Oc2ccc(-c3nnco3)cc2)cc1S(=O)(=O)N1CCOCC1	-1.3	-2.2	0.69	i	0%	u	4.7
CCOc1ccc(C(=O)c2cc3ccc(O)cc3oc2=O)cc1	0.3	1.4	0.67	i	4%	53*	5.2
COc1ccc(NC(=O)CN(C)CC(=O)Nc2cccc3ccccc23)c(OC)c1	-33	0.5	0.67	i	2%	x	0.7
O=C(NCc1cccnc1)Nc1ccc(Cl)cc1	-0.3	5.2	0.63	i	x	-1.8	-0.1
O=C(CCC(=O)N1CCSc2ccccc21)NCc1ccccc1	-3.3	0.4	0.73	i	x	u	9.0
COCCNc1nc(NCc2cccc(OC)c2)c2sccc2n1	-0.8	-0.1	x	i	x	x	x
N#Cc1cc2c(nc1SCC(O)CS(=O)(=O)Cc1ccc(Cl)cc1)CCCC2 (stereo unspecified)	x	0.1	0.7	x	-2%	1.5	0.7
CCOC(=O)Cc1csc(NC(=O)C(NC(=O)C2CCCCC2)C(C)C)n1 (stereo unspecified)	1.2	-1.5	0.7	i	x	2.9	2.3
CC(C)Cn1c(SCC(=O)N(C)c2c(N)n(Cc3ccccc3)c(=O)[nH]c2=O)nc2ccccc21	-3.2	1.2	0.7	x	-4%	-0.8	-1.6
COc1ccc(Cl)cc1CNC[C@H]1O[C@@H](n2ccc(N)nc2=O)[C@H](O)[C@@H]1O	-2.0	-0.8	x	i	-1%	x	x
Cc1cc2n(n1)C(c1ccc(O)cc1)Nc1ccccc1-2 (stereo unspecified)	x	2.1	0.68	x	8%	-3.0	-48
O=C(N/C(=C\c1cn(-c2ccccc2)nc1-c1ccc(Cl)cc1)C(=O)N1CCOCC1)c1ccccc1	-6.8	x	0.71	i	x	0.4	-11
O=C(Nc1ccc2c(c1)OCO2)c1ccc(COc2ccc3c(c2)CCC3)o1	x	-1.1	0.69	x	15%	-1.8	0.5
CCCCNCCOCCOc1ccccc1-c1ccccc1	x	-1.6	0.68	x	2%	2.0	-18
COC(CNC(=O)c1ccc2c(c1)nc(C)n2-c1ccc(F)c(F)c1)OC	x	1.2	0.68	x	5%	-3.6	-1.1
CC(C)OCCCNC(=O)C1CCN(S(=O)(=O)N2CCCC2)CC1	-1.8	1.3	0.64	i	-1%	-3.6	-1.7
CCS(=O)(=O)c1ccc2oc(SCC(=O)NC(C)C3CC4CCC3C4)nc2c1 (stereo unspecified)	x	-4.2	0.8	x	7%	0.1	6.5
O=C1CC(c2ccccc2)CN1C(=O)c1cccnc1 (stereo unspecified)	-11	-1.2	0.69	i	-3%	-2.6	2.7
O=C1c2ccccc2NC(c2ccc(F)cc2)N1Cc1ccco1 (stereo unspecified)	x	0.4	0.7	x	-5%	0.8	-225
CCCSc1ncc(Cl)c(C(=O)Nc2ccc(S(=O)(=O)Nc3ncccn3)cc2)n1	-1.0	2.0	0.62	i	x	2.9	5.3
C/C(=N\NC(=O)C1CC1)c1cccs1	x	0.0	x	x	0%	-3.0	x
CCC1(c2ccc(Cl)cc2)NC(=S)N(c2ccc(C)cc2)N1 (stereo unspecified)	x	6.2	0.65	x	u	-0.3	1.3
CCc1nc2c(OCc3ccc(C(=O)N(C)C)cc3)cccn2c1N(C)C(=O)Nc1ccccc1OC	0.8	2.1	x	i	x	x	x
COc1ccc(CC(=O)Nc2cc(S(=O)(=O)Nc3ccc(OC)cc3)ccc2OC)cc1	0.0	-1.7	0.73	i	x	x	3.2
NC(=O)c1sc2nccc(Nc3ccccc3)c2c1N	x	2.7	0.69	x	33%	39*	-36
O=C(c1ccco1)N1CCN(c2ccccc2F)CC1	x	-1.8	0.68	x	4%	2.5	-1.6
CCOC(=O)c1ccc(NC(=O)c2c(N)n(C)c(=O)[nH]c2=O)cc1	x	1.3	0.82	x	x	1.6	2.5
O=C1NC[C@@H](c2ccccc2)OC(=O)[C@H](Cc2ccc(F)cc2)C/C=C\C[C@@H]1CC(=O)N(CCO)Cc1ccccc1	-16	1.2	x	i	x	x	3.1

Assay outcomes as filed in PubChem.

A portion of the library. The share of hits here may be higher or lower than overall.
